High-throughput results deposited in PubChem by Broad Institute.
Vaccinia inh = Vaccinia orthopox stage-specific inhibition; Vaccinia-infected cells, mCherry/Venus stage reporter fluorescence; hits give low values; some inactives read as strong as hits; activity change (mCherry), % (no concentration beside the values); hit rate 0.01% among 89,000;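 active = mCherry past -33% and 40 or more points under the early reporter, replicates agreeing; inconclusive = past -33% without that gap or agreement; tested in A549 cells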;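 also: scaled between vehicle wells and reference inhibitor wells; 23 nL library stock went into each well; one replicate is shown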
Vaccinia inh Venus = recorded beside Vaccinia inh, whose call it bears; activity change (Venus), %; measured here: Venus reporter, other viral stage;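 negative = less Venus signal; first of two replicates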
Starred values were filed as active, the others as inactive; ? = inconclusive; / = no result given.

molecule	Vaccinia inh	Vaccinia inh Venus
O=C(C[C@H]1C=C[C@@H](NC(=O)c2ccncc2)[C@H](CO)O1)Nc1ccc(-c2ccccc2)cc1	-9.4	2.3
CO[C@@H]1CN(C)C(=O)c2ccc(NC(=O)Nc3cc(F)ccc3F)cc2OC[C@@H](C)NC[C@H]1C	-20.4	-7.1
CC(C)NC(=O)Nc1ccc2c(c1)C(=O)N([C@@H](C)CO)C[C@@H](C)[C@H](CN(C)C(=O)Nc1cccc3ccccc13)OCCCC[C@@H](C)O2	-9.5	-1.5
COc1ccc(S(=O)(=O)N(C)C[C@H]2Oc3ccc(NS(C)(=O)=O)cc3CC(=O)N([C@@H](C)CO)C[C@H]2C)cc1	-12.6	-18.3
O=C(C[C@H]1C=C[C@H](NC(=O)c2ccccc2)[C@H](CO)O1)NCCc1ccncc1	1.4	4.4
COc1ccc(CN(C)C[C@@H]2OCCCC[C@H](C)Oc3ccc(NC(=O)Nc4c(C)noc4C)cc3C(=O)N([C@@H](C)CO)C[C@H]2C)cc1	0.0	4.8
C[C@H]1CN([C@@H](C)CO)C(=O)c2ccccc2-c2ccccc2CO[C@H]1CN(C)S(=O)(=O)c1ccc(F)cc1	30.8	21.1
CN(C)CCCNC(=O)C[C@H]1C=C[C@H](NS(=O)(=O)c2ccccc2)[C@H](CO)O1	-4.5	-7.6
O=C(C[C@@H]1C[C@@H]2c3cc(NC(=O)c4cccnc4)ccc3O[C@@H]2[C@H](CO)O1)NCC1CC1	9.5	-3.5
O=C(NCC[C@H]1CC[C@@H](NC(=O)C2CCOCC2)[C@@H](CO)O1)c1cc(Cl)cc(Cl)c1	-8.4	-4.0
CN1C(=O)c2cc(NC(=O)Cc3cccs3)ccc2OC[C@@H]2O[C@@H](CC(=O)NCCc3ccncc3)CC[C@H]21	7.0	13.5
CC(C)C#Cc1cnc2c(c1)C(=O)N([C@@H](C)CO)C[C@H](C)[C@@H](CN(C)C(=O)CN1CCOCC1)O2	21.2	10.3
COc1cccc(CNC(=O)C[C@@H]2CC[C@H](NS(=O)(=O)c3ccccc3OC)[C@@H](CO)O2)c1	0.2	-2.6
COc1ccc2c3c([nH]c2c1)[C@H](CO)N(C(=O)c1ccccc1)CC31CCN(Cc2cccnc2)CC1	-19.7	-17.0
COCCOC(=O)N1C(=O)[C@@]2(c3cc(C#Cc4ccc(OC)cc4)ccc31)[C@H](c1ccc(OCCO)cc1)N1[C@H](c3ccccc3)[C@H](c3ccccc3)OC(=O)[C@H]1[C@@H]2C(=O)N1CCN(c2ncccn2)CC1	-11.3	-4.4
O=C(C[C@H]1C=C[C@@H](NS(=O)(=O)c2ccc(F)cc2)[C@@H](CO)O1)NCc1ccncn1	5.3	-0.8
C[C@H](CO)N1C[C@H](C)[C@H](CN(C)S(=O)(=O)c2cccs2)Oc2ccc(NS(=O)(=O)c3ccc(F)cc3)cc2CC1=O	-5.7	-8.3
COc1ccc(NC(=O)Nc2ccc3c(c2)C(=O)N([C@@H](C)CO)C[C@@H](C)[C@@H](CN(C)Cc2ccc(C(=O)Nc4ccccc4N)cc2)O3)cc1	-3.7	10.2
C[C@@H]1CN([C@@H](C)CO)C(=O)c2cccc(NC(=O)CCCCCC(=O)Nc3ccccc3N)c2O[C@@H]1CN(C)S(=O)(=O)c1ccc(F)cc1	14.1	-3.0
CO[C@H]1CN(C)C(=O)c2cc(NC(=O)Nc3ccccc3)ccc2OC[C@H](C)N(C(=O)Nc2c(C)noc2C)C[C@H]1C	3.0	6.3
C[C@@H](NC(=O)C[C@@H]1CC[C@H]2[C@@H](COC[C@H](O)CN2C(=O)Nc2ccccc2)O1)c1ccccc1	-0.7	0.0
O=C(C[C@H]1CC[C@@H]2[C@H](COC[C@H](O)CN2C(=O)c2ccccc2)O1)Nc1nccs1	12.7	4.3
O=C(C[C@@H]1C[C@H]2c3cc(NS(=O)(=O)c4ccc(F)cc4)ccc3O[C@H]2[C@@H](CO)O1)NCCc1ccccc1	-7.9	-11.6
C[C@H](CO)N1C[C@H](C)[C@@H](CN(C)Cc2ccc(C(F)(F)F)cc2)OCc2cnnn2CCCC1=O	-2.8	-0.2
O=C(C[C@@H]1C[C@@H]2c3cc(NC(=O)NC4CCCC4)ccc3O[C@@H]2[C@H](CO)O1)NCc1ccc2c(c1)OCO2	7.2	10.4
COc1ccc(C#Cc2ccc([C@H]3[C@H]4CN(C(=O)c5ccccc5)CC(=O)N4[C@H]3CO)cc2)cc1	?	/
CC(C)NC(=O)N(C)C[C@H]1OCc2cnnn2CCCC(=O)N([C@@H](C)CO)C[C@H]1C	5.8	14.5
C[C@@H]1CCCCO[C@@H](CN(C)C(=O)NC2CCCCC2)[C@@H](C)CN([C@@H](C)CO)C(=O)c2cc(NC(=O)CCCN(C)C)ccc2O1	7.7	9.5
C[C@H](CO)N1C[C@H](C)[C@@H](CN(C)C(=O)Nc2ccc(C(F)(F)F)cc2)Oc2ncc(-c3cccnc3)cc2C1=O	4.6	-2.3
C[C@H](CO)N1C[C@H](C)[C@H](CN(C)Cc2ccc(C(F)(F)F)cc2)Oc2ccc(NC(=O)Nc3cccc4ccccc34)cc2C1=O	-0.1	0.6
CCc1csc(N2[C@H](C#N)[C@H](c3ccccc3-c3ccc(F)cc3)[C@H]2CO)n1	13.9	7.0
CC(C)NC(=O)N1[C@@H](CO)[C@H](c2ccccc2)C12CN(C(=O)c1ccccn1)C2	7.8	8.3
CCCNC(=O)Nc1ccc2c(c1)OC[C@H](C)N(Cc1ccccc1)C[C@H](C)[C@H](OC)CN(C)C2=O	1.9	-2.7
COCC(=O)Nc1ccc2c(c1)OC[C@@H](C)N(Cc1cccc(F)c1)C[C@H](C)[C@@H](OC)CN(C)C2=O	-3.2	5.1
C[C@H]1CN([C@@H](C)CO)C(=O)Cc2cc(N(C)C)ccc2O[C@@H]1CN(C)C	7.6	1.4
CNC[C@H]1Oc2ccc(NS(=O)(=O)c3ccccc3)cc2CC(=O)N([C@@H](C)CO)C[C@@H]1C	5.0	0.1
O=C(C1CCC1)N1CC(=O)N2[C@H](C1)[C@H](c1ccc(C#Cc3cccc(F)c3)cc1)[C@@H]2CO	?	/
O=C(C[C@H]1C[C@H]2c3cc(NC(=O)CC4CC4)ccc3O[C@H]2[C@@H](CO)O1)NCc1cc(F)ccc1F	10.2	9.1
CO[C@H]1CN(C)C(=O)c2cc(NC(=O)NC3CCCCC3)ccc2OC[C@H](C)NC[C@@H]1C	-6.0	-6.0
CN1C(=O)c2cc(NC(=O)C3CCOCC3)ccc2OC[C@@H]2O[C@@H](CC(=O)NCC3CC3)CC[C@@H]21	8.1	7.6
CCCNC(=O)N[C@H]1CC[C@H](CC(=O)NC2CCCCC2)O[C@H]1CO	-5.8	-0.4
C[C@H](CO)N1C[C@H](C)[C@@H](CN(C)C(=O)CCC(F)(F)F)OCCCC[C@H](C)Oc2ccc(NS(C)(=O)=O)cc2C1=O	12.8	4.4
CN(C)CC(=O)Nc1ccc2c(c1)[C@@H]1C[C@H](CC(=O)NC3CCCC3)O[C@@H](CO)[C@@H]1O2	12.4	6.2
C[C@@H]1CN([C@H](C)CO)C(=O)c2cccc(NC(=O)C3CCCCC3)c2O[C@H]1CN(C)Cc1ccccc1	-11.6	-12.9
C[C@@H]1CCCCO[C@@H](CN(C)C(=O)Nc2ccccc2)[C@@H](C)CN([C@H](C)CO)C(=O)c2cc(NS(=O)(=O)c3cn(C)cn3)ccc2O1	6.1	4.9
C[C@@H]1CN([C@H](C)CO)C(=O)c2cccc(NC(=O)C3CCOCC3)c2O[C@@H]1CN(C)C	-7.2	-16.7
COc1ccc(NC(=O)N(C)C[C@H]2Oc3ccc(NC(=O)NC4CCCCC4)cc3CC(=O)N([C@H](C)CO)C[C@H]2C)cc1	21.1	8.1
Cn1cnc(CCNC(=O)C[C@H]2CC[C@H]3[C@@H](COC[C@H](O)CN3C(=O)Nc3ccc(Cl)cc3)O2)c1	-5.6	2.6
CO[C@H](CN(C)C(=O)c1ccc2c(c1)OCO2)[C@H](C)CN([C@H](C)CO)S(=O)(=O)c1ccc(F)cc1	12.6	5.4
CCNC(=O)C[C@H]1CC[C@@H](NC(=O)C2CCC2)[C@H](CO)O1	17.4	7.2
Cc1ccc(S(=O)(=O)Nc2ccc3c(c2)C(=O)N([C@@H](C)CO)C[C@@H](C)[C@H](CN(C)S(=O)(=O)c2cn(C)cn2)OCCCC[C@@H](C)O3)cc1	1.3	0.5
C[C@@H]1CN([C@@H](C)CO)C(=O)c2cccc(NS(=O)(=O)c3ccccc3)c2O[C@H]1CN(C)C(=O)Nc1ccc(C(F)(F)F)cc1	4.5	-4.5
O=C(N[C@@H]1CC[C@H](CCn2cc(-c3ccccn3)nn2)O[C@@H]1CO)c1cccnc1	8.8	0.8
C[C@H](CO)N1C[C@H](C)[C@H](CN(C)C(=O)NC2CCCCC2)Oc2ncc(-c3ccccc3)cc2C1=O	12.0	9.6
CCCC#Cc1cnc2c(c1)C(=O)N([C@@H](C)CO)C[C@H](C)[C@@H](CN(C)S(=O)(=O)c1cccc(OC)c1)O2	?	/
CS(=O)(=O)Nc1ccc2c(c1)[C@H]1C[C@H](CC(=O)NCC3CC3)O[C@H](CO)[C@H]1O2	3.4	11.4
CC(C)CC#Cc1cnc2c(c1)C(=O)N([C@@H](C)CO)C[C@@H](C)[C@@H](CN(C)C(=O)c1cnccn1)O2	5.9	-4.1
Cc1cc(C(=O)Nc2cccc3c2O[C@H](CN(C)S(=O)(=O)c2ccc(F)cc2)[C@H](C)CN([C@@H](C)CO)C3=O)n(C)n1	8.5	6.2
O=C(C[C@H]1CC[C@H]2[C@@H](COC[C@@H](O)CN2C(=O)c2cnccn2)O1)NCc1ccc(F)cc1	3.2	2.3
COc1cccc(C#Cc2cnc3c(c2)C(=O)N([C@@H](C)CO)C[C@@H](C)[C@@H](CN(C)C(=O)C2CCCCC2)O3)c1	-22.6	-18.2

(continued)
molecule	Vaccinia inh	Vaccinia inh Venus
COc1ccc(NC(=O)N(C)C[C@H]2Oc3ncc(-c4cccnc4)cc3C(=O)N([C@H](C)CO)C[C@@H]2C)cc1	23.1	22.8
N#C[C@@H]1[C@H](c2ccc(C#Cc3ccccc3F)cc2)[C@@H](CO)N1C(=O)C1CCC1	?	/
CC(C)CC#Cc1ccc2c(c1)O[C@H](CN(C)C(=O)c1cccc(F)c1)[C@@H](C)CN([C@H](C)CO)S2(=O)=O	?	/
COc1ccccc1S(=O)(=O)N(C)C[C@@H]1Oc2cc(C#CCC(C)C)ccc2S(=O)(=O)N([C@@H](C)CO)C[C@H]1C	-33.2	-34.0
COc1ccc(NC(=O)N[C@H]2CC[C@H](CCNC(=O)CCN3CCCCC3)O[C@@H]2CO)cc1	3.1	2.3
CCCC#Cc1cnc2c(c1)C(=O)N([C@H](C)CO)C[C@@H](C)[C@H](CN(C)C(=O)Nc1ccccc1OC)O2	10.2	9.0
C[C@H]1CN([C@@H](C)CO)C(=O)Cc2cc(NC(=O)Nc3ccc(F)cc3)ccc2O[C@H]1CN(C)S(=O)(=O)c1ccccc1	?	/
C[C@H](CO)N1C[C@H](C)[C@@H](CN(C)Cc2ccc(C(=O)O)cc2)Oc2ccc(NC(=O)NC3CCCCC3)cc2CC1=O	9.0	-1.9
C[C@H](CO)N1C[C@H](C)[C@@H](CN(C)S(C)(=O)=O)Oc2cc(-c3ccccc3F)ccc2S1(=O)=O	0.5	-11.5
O=C(C[C@@H]1C=C[C@H](NC(=O)c2ccccn2)[C@@H](CO)O1)NCc1cc(F)cc(F)c1	-3.5	-1.7
CCC(=O)N[C@@H]1C=C[C@@H](CC(=O)NCc2cc(F)cc(F)c2)O[C@H]1CO	-2.6	-0.5
Cc1ccc(S(=O)(=O)N[C@H]2CC[C@@H](CC(=O)N3CCN(c4ccccc4)CC3)O[C@@H]2CO)cc1	-12.2	-7.8
COCc1cn(CC[C@H]2CC[C@H](NC(=O)c3ccccc3)[C@@H](CO)O2)nn1	9.1	6.7
CCc1csc(N2[C@H](C#N)[C@H](c3ccc(C4=CCCC4)cc3)[C@H]2CO)n1	-4.5	6.8
CC(=O)N(C)C[C@H]1Oc2cc(C#Cc3ccccc3)ccc2S(=O)(=O)N([C@H](C)CO)C[C@H]1C	-34.9	-23.0
C[C@@H]1CN([C@@H](C)CO)S(=O)(=O)c2ccc(-c3cccc(F)c3)cc2O[C@@H]1CN(C)C(=O)C1CC1	-7.6	-15.4
C[C@H](CO)N1C[C@H](C)[C@H](CN(C)C(=O)Nc2ccccc2)Oc2ccc(NS(=O)(=O)c3cccs3)cc2CC1=O	14.5	8.3
CC(=O)N1[C@@H]2Cn3c(ccc(C4=CCCC4)c3=O)[C@H]1[C@@H](C(=O)NCC1CC1)[C@@H]2CO	10.8	6.1
C[C@H](CO)N1C[C@H](C)[C@H](CN(C)Cc2ccncc2)Oc2ccc(NS(=O)(=O)c3ccc(Cl)cc3)cc2CC1=O	-3.5	-7.0
C[C@@H]1CN([C@H](C)CO)C(=O)c2cccc(NC(=O)Nc3ccc4c(c3)OCO4)c2O[C@H]1CN(C)C(=O)Nc1cccc2ccccc12	13.9	17.7

An excerpt from above in order of formula weight, lowest first:
molecule	Vaccinia inh	Vaccinia inh Venus
CCNC(=O)C[C@H]1CC[C@@H](NC(=O)C2CCC2)[C@H](CO)O1	17.4	7.2
CCc1csc(N2[C@H](C#N)[C@H](c3ccccc3-c3ccc(F)cc3)[C@H]2CO)n1	13.9	7.0
Cc1ccc(S(=O)(=O)Nc2ccc3c(c2)C(=O)N([C@@H](C)CO)C[C@@H](C)[C@H](CN(C)S(=O)(=O)c2cn(C)cn2)OCCCC[C@@H](C)O3)cc1	1.3	0.5

Not all compounds are listed; rates above refer to the full screens.
